Sa RN4220 lethal: S. aureus RN4220 growth inhibition | inhibition, % (concentration not given with the values) | 0.33% of 330,000 active | AID 1259311 | OD600, 16 h;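 active means z-score of -3 or lower and OD600 up to 0.18 on both plates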;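 further: plate controls were untreated cells for no effect and reference antibiotic for full effect; stock transfer was 100 nL into about 80 µL; one replicate is shown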
BJeLR lethal: kills HRASV12-expressing BJeLR cells | BJeLR (HRASV12) viability, CellTiter-Glo ATP luminescence, 48 h; reference of the scale not given here | 0.17% of 300,000 active | inhibition, % (no concentration beside the values);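 active means replicate mean above 50%; inconclusive means above 50% but judged a plate artefact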;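 further: 50 nL library stock added to about 25 µL; numbers are from one replicate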
ugtP null kill: compounds lethal to S. aureus RN4220 ugtP deletion mutant; OD600 growth, 16 h; some inactives read as strong as hits; growth inhibition, % (no concentration beside the values); 0.54% of 330,000 active; AID 1259309;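 active means z-score under -3 and OD600 up to 0.15 on both plates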;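 further: plate controls were untreated wells for no effect and antibiotic for full effect; wells of about 80 µL received 100 nL stock; the first replicate is given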
Mtb hypoxia inh: Mtb hypoxia fluorescent reporter inhibition | M. tuberculosis hypoxia-regulated fluorescent reporter, fluorescence | fluorescence inhibition, % (no concentration beside the values) | 0.1% of 300,000 active | AID 1159583;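 active means 35 to 45% if threefold the growth effect, above 45% if 1.5-fold the growth effect; inactive means the rest, general growth blockers included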;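 further: wells of about 50 µL received 100 nL stock; 0% = vehicle wells and 100% = reference inhibitor wells; whole bacteria with a GFP reporter of the hypoxia response; strong numbers were not always called active; many hits fall short of the cut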
PrP UTR inh: suppresses PrP 5' UTR mRNA reporter expression; cell-based PrP 5' UTR mRNA reporter, plate reader; AID 488862; 0.35% of 340,000 active; inhibition, % (no concentration beside the values);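 active means every replicate at 50% or more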;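 further: 0 = median of the neutral control wells; tested in H4 reporter cells; numbers are from one replicate; inactives centre near -14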
Bead autofluor: flagged as autofluorescent in microsphere protease counterscreen | 3.1% of 360,000 active | AID 624483 | fluorescence intensity (test concentration not listed) | compound autofluorescence counterscreen, microsphere flow cytometry; hits give high values;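 active means at least 3 SD above the mean of all compounds, about 16000 in these data; inconclusive means too few beads counted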;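 further: 100 nL of 1 mM stock went into each well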
Mtb hypoxia inh growth: also measured in Mtb hypoxia inh; calls as there; growth inhibition, %; measured here: M. tuberculosis growth (absorbance);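 0% = vehicle and 100% = reference antibiotic; read after six days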
The depositor's hits bear a star; ? = inconclusive; · = not tested or not shown; & = joins results of further samples.

SMILES	Sa RN4220 lethal	BJeLR lethal	ugtP null kill	Mtb hypoxia inh	Mtb hypoxia inh growth	PrP UTR inh	Bead autofluor
O=C(CN(C(=O)c1csnn1)c1cccc(F)c1)NCc1ccc(F)cc1	-0.2	-5.2	13.6	-2.7	2.5	-21.4	4384
O=C(N/N=C/c1cccnc1)c1ccc(NC(=O)c2ccc(Cl)cc2)cc1	·	7.5	·	·	·	-7.6	5134
O=[N+]([O-])c1ccc(NCCNS(=O)(=O)c2ccccc2)c(C(F)(F)F)c1	-2.3	-5.5	-11.9	·	·	-11.4	4549
Cc1ccc(OCc2nc(-c3ccc(-n4cccc4)cc3)no2)cc1C	1.3	-7.2	-17.7	-8.5	-0.4	-18.9	4393
CCc1ccc(-c2nc(-c3ccncc3)no2)cc1	3.5	·	5.6	·	·	-0.5	2158
Cc1cc2cc(CNC(=O)Cc3ccc([N+](=O)[O-])cc3)ccc2[nH]1	0.3	0.7	11.9	1.3	8.5	-21.2	3872
N#C/C(=C\c1ccc(-c2cccc([N+](=O)[O-])c2)o1)c1nnc(N2CCOCC2)n1-c1ccccc1	2.0	-1.1	-71.8	5.4	0.2	·	·
N#Cc1cnn2c(-c3cccc(C(F)(F)F)c3)ccnc12	1.8	-4.7	5.0	10.4	1.2	-8.2	?
CC(C)c1cccc(C(C)C)c1NC(=O)CN1CCCC1	3.9	7.3	6.1	8.2	9.1	-6.4	4033
CCn1cc(CNC(=O)c2ccc(C)s2)cn1	3.7	8.1	0.4	12.9	6.5	-6.5	3372
CCCCc1cc(=O)oc2cc(C)cc(OCC(=O)Nc3ccccn3)c12	3.4	2.3	0.9	7.8	15.0	-43.5	4683
COc1ccccc1NS(=O)(=O)c1ccc(NN=C2CCCCC2)c([N+](=O)[O-])c1	-0.9	-20.3	-11.0	0.0	-2.9	-5.0	1895
Cc1cc(NC(=O)c2ccccc2Cl)ccc1NC(=O)c1ccccc1Cl	5.4	-12.2	7.5	3.3	4.5	-23.6	3900
CCOc1cc(C2C(C#N)=C(N)SC(N)=C2C#N)ccc1OCCN1CCOCC1	1.8	3.5	-3.0	6.5	6.0	-19.1	8863
Cc1nc(C)c(-c2csc(Nc3ccc(C(=O)O)c(O)c3)n2)s1	3.4	-3.7	10.0	-0.3	-5.5	-20.3	2894
COc1cc(CNCc2cccnc2)ccc1OCC(=O)NC(C)(C)C	-0.3	6.5	6.8	4.8	-8.8	-17.3	2063
FC(F)(F)c1ccccc1NC(=S)N1CCN(c2ncccn2)CC1	-7.1	-9.1	3.5	0.5	4.7	-9.9	3174
COc1cc(NC(=O)CCS(=O)(=O)c2ccc3c(c2)n(C)c(=O)c(=O)n3C)cc(OC)c1	1.0	-15.5	-14.5	·	·	-13.7	6012
CC(c1c(O)c2ccccc2[nH]c1=O)C1(C)CCC(O)C(C)(C)O1 (configuration not stated)	11.0	3.1	5.6	·	·	-50.7	5585
O=C(c1ccnc(Cl)c1)N1CCCC(Nc2ccc(F)cc2)C1 (configuration not stated)	2.1	-0.6	3.7	-4.5	-5.8	-0.4	6251
CCC(C)NC(=O)c1ccc(CSCc2ccc(Cl)cc2)o1 (configuration not stated)	6.3	2.7	14.4	6.2	2.3	-16.4	3616
Cc1cccc(S(=O)(=O)N(CC(=O)Nc2ccccc2C)Cc2ccco2)c1	1.4	-1.9	-12.1	·	·	-17.3	3002
Cc1c(CCC(=O)O)c(=O)oc2cc3occ(-c4ccccc4)c3cc12	12.8	0.8	13.1	7.2	7.1	-10.2	3181
Cc1ccc[n+](CC(=O)Nc2ccc([N+](=O)[O-])cc2Cl)c1	4.8	0.5	-6.4	6.1	9.4	-23.8	3969

Given as a markdown table: part of the list above
| SMILES | Sa RN4220 lethal | BJeLR lethal | ugtP null kill | Mtb hypoxia inh | Mtb hypoxia inh growth | PrP UTR inh | Bead autofluor |
| --- | --- | --- | --- | --- | --- | --- | --- |
| Cc1cc2cc(CNC(=O)Cc3ccc([N+](=O)[O-])cc3)ccc2[nH]1 | 0.3 | 0.7 | 11.9 | 1.3 | 8.5 | -21.2 | 3872 |
| N#C/C(=C\c1ccc(-c2cccc([N+](=O)[O-])c2)o1)c1nnc(N2CCOCC2)n1-c1ccccc1 | 2.0 | -1.1 | -71.8 | 5.4 | 0.2 | · | · |
| N#Cc1cnn2c(-c3cccc(C(F)(F)F)c3)ccnc12 | 1.8 | -4.7 | 5.0 | 10.4 | 1.2 | -8.2 | ? |
| CC(C)c1cccc(C(C)C)c1NC(=O)CN1CCCC1 | 3.9 | 7.3 | 6.1 | 8.2 | 9.1 | -6.4 | 4033 |
| CCn1cc(CNC(=O)c2ccc(C)s2)cn1 | 3.7 | 8.1 | 0.4 | 12.9 | 6.5 | -6.5 | 3372 |
| CCCCc1cc(=O)oc2cc(C)cc(OCC(=O)Nc3ccccn3)c12 | 3.4 | 2.3 | 0.9 | 7.8 | 15.0 | -43.5 | 4683 |
| COc1ccccc1NS(=O)(=O)c1ccc(NN=C2CCCCC2)c([N+](=O)[O-])c1 | -0.9 | -20.3 | -11.0 | 0.0 | -2.9 | -5.0 | 1895 |
| Cc1cc(NC(=O)c2ccccc2Cl)ccc1NC(=O)c1ccccc1Cl | 5.4 | -12.2 | 7.5 | 3.3 | 4.5 | -23.6 | 3900 |
| CCOc1cc(C2C(C#N)=C(N)SC(N)=C2C#N)ccc1OCCN1CCOCC1 | 1.8 | 3.5 | -3.0 | 6.5 | 6.0 | -19.1 | 8863 |
| Cc1nc(C)c(-c2csc(Nc3ccc(C(=O)O)c(O)c3)n2)s1 | 3.4 | -3.7 | 10.0 | -0.3 | -5.5 | -20.3 | 2894 |
| COc1cc(CNCc2cccnc2)ccc1OCC(=O)NC(C)(C)C | -0.3 | 6.5 | 6.8 | 4.8 | -8.8 | -17.3 | 2063 |
| FC(F)(F)c1ccccc1NC(=S)N1CCN(c2ncccn2)CC1 | -7.1 | -9.1 | 3.5 | 0.5 | 4.7 | -9.9 | 3174 |
| COc1cc(NC(=O)CCS(=O)(=O)c2ccc3c(c2)n(C)c(=O)c(=O)n3C)cc(OC)c1 | 1.0 | -15.5 | -14.5 | · | · | -13.7 | 6012 |
| CC(c1c(O)c2ccccc2[nH]c1=O)C1(C)CCC(O)C(C)(C)O1 (configuration not stated) | 11.0 | 3.1 | 5.6 | · | · | -50.7 | 5585 |
| O=C(c1ccnc(Cl)c1)N1CCCC(Nc2ccc(F)cc2)C1 (configuration not stated) | 2.1 | -0.6 | 3.7 | -4.5 | -5.8 | -0.4 | 6251 |
| CCC(C)NC(=O)c1ccc(CSCc2ccc(Cl)cc2)o1 (configuration not stated) | 6.3 | 2.7 | 14.4 | 6.2 | 2.3 | -16.4 | 3616 |

Continued:
SMILES	Sa RN4220 lethal	BJeLR lethal	ugtP null kill	Mtb hypoxia inh	Mtb hypoxia inh growth	PrP UTR inh	Bead autofluor
CC1CCCC(C)N1C(=O)CSc1nc2ncnc(N)c2[nH]1 (configuration not stated)	4.6	-4.2	2.3	12.8	3.2	-10.6	10403
Cc1cccc(C)c1NC(=O)CSc1n[nH]c(=O)n1C1CC1	9.4	·	7.2	-1.6	0.7	-19.7	3996
Nc1nc(N)c2sc3nc(C(F)(F)F)cc(C(F)(F)F)c3c2n1	1.9	-11.7	8.8	7.2	4.5	-2.9	3412
CCOCCCN(C(=O)Cn1nnc(-c2ccc(C)o2)n1)C(C(=O)NCC1CCCO1)c1ccc(F)cc1 (configuration not stated)	3.9	-3.3	5.6	3.2	12.2	-10.4	5186
CCN1CCN(Cc2cc(=O)oc3ccc(C)cc23)CC1	0.9	-13.7	3.7	11.2	5.0	-6.5	6964
CC(C)(C)NC(=O)CN(C(=O)c1snc(C(=O)NC2CCCCC2)c1N)c1ccc(F)cc1	1.3	4.4	3.3	-8.2	-9.3	14.4	2945
CCOC(=O)C1(CC2CCCCO2)CCN(S(=O)(=O)c2cc(C)cs2)CC1 (configuration not stated)	2.7	5.0	-8.8	-5.8	-3.4	-14.9	3330
COc1ccc(CCNCc2ccccn2)cc1OC	-2.0	-0.3	-5.8	-2.4	1.0	2.9	16567*
Nc1nc(-c2ccco2)nn1C(=O)c1ccc(Cl)cc1	-8.3	-3.1	1.0	16.5	6.1	2.7	3292
O=C(CCCCl)Nc1nc(-c2ccc3c(c2)OCCO3)cs1	3.1	3.9	-5.6	5.1	7.6	-65.4	3646
Cc1cc(C)cc(CC(Cc2nc3ccccc3[nH]2)c2nc3ccccc3[nH]2)c1 (configuration not stated)	-11.3	-1.1	-12.3	-4.7	3.3	-4.6	2556
O=C(C(=O)N1CCCC1CO)N1CCCC1CO (configuration not stated)	3.3	-4.6	2.0	9.6	-4.8	-12.2	2118
C(=NC12CN3CN(CN(C3)C1)C2)c1ccc2c(c1)OCO2	1.7	4.2	5.1	7.7	4.3	-22.5	4222
O=C(NCCS(=O)(=O)N1CCN(c2ccccc2)CC1)c1ccccc1F	0.7	6.7	4.4	2.8	2.9	-6.0	6458
Cc1cccc(C)c1OCc1cc(C(=O)N(Cc2c(C)nn(C)c2C)C2CC2)no1	1.8	14.9	3.3	-2.6	-3.6	-6.8	6001
CC/C(=C/c1sc2ccc(C)cc2[n+]1CCCS(=O)(=O)[O-])SC	3.7	5.2	5.2	11.2	8.4	·	·
CCN(CC)CCCNc1nc(CN2CCOCC2)nc2sc3c(c12)CCC3	3.4	3.1	-1.1	-5.7	7.7	4.9	4370
O=C(NCc1nnc(SCC(=O)N2CCCCCC2)o1)c1ccccc1F	4.7	-1.2	-0.1	8.4	5.2	0.7	5925
CCOC(=O)C1=C(COC(=O)c2cccc(Cl)c2)NC(=O)NC1C (configuration not stated)	8.7	5.2	4.9	-1.4	-5.8	-15.7	6309
COc1ccc(C(C(=O)NC2CCCC2)N(CC2CCCO2)C(=O)Cc2cccs2)cc1OC (configuration not stated)	6.1	-6.9	-6.1	2.4	2.0	-12.3	2215
Cc1cccc(C(=O)NC(=S)NC(C)c2ccccc2)c1 (configuration not stated)	-7.4	1.0	-23.4	-4.4	1.6	·	4452
CC(C)CSc1nc2c(c(=O)[nH]c(=O)n2C)n1CCc1ccccc1	4.0	8.0	5.9	·	·	-16.1	2733
COc1cccc(OCC(O)CN2CCN(c3ccccc3)CC2)c1 (configuration not stated)	2.8&4.2	-4.5&8.9	2.0&8.3	-2.6&-3.3	3.1&3.7	-26.2&-13.6	3530&3868
CCC(=O)NN=C(C)CC(=O)Nc1ccc2c(c1)OCCO2	2.3	·	7.4	4.4	2.4	·	·
NC(=O)c1ccsc1NC(=O)c1coc2ccccc2c1=O	13.3	1.1	15.8	11.0	6.9	-46.1	2000
CN(C)S(=O)(=O)c1ccc(C(=O)Nc2ccc(S(=O)(=O)NC3=NCCCCC3)cc2)cc1	1.3	-2.5	-1.3	·	·	-13.1	2908
CCOc1ccc(OCC)c(S(=O)(=O)NCc2ccc3c(c2)OCO3)c1	-1.7	1.2	2.3	5.3	6.1	-6.6	5726
Cc1ccc(Cl)cc1N1CCN(C(=O)c2cccc3c(=O)c(C)c(-c4ccccc4)oc23)CC1	1.2	-8.6	-31.5	2.7	5.6	-0.4	2036
O=C(O)c1cccc(-n2cccc2/C=N/O)c1	·	2.7	·	·	·	-34.4	4375
COc1ccccc1CCCNC(=O)C1CCC(=O)N(CCCN2CCCC2=O)C1 (configuration not stated)	-0.7	-7.4	-0.6	-6.7	6.2	-7.7	5480
CC(=O)NS(=O)(=O)c1ccc(NC(=O)c2ccc3c(c2)NC(=O)CS3)cc1	6.2	·	5.3	10.2	2.0	-48.1	4133
COC(=O)Cc1csc(NCc2ccccc2)n1	1.7	-5.5	-4.7	-7.2	1.1	-25.9	3663
O=C(OCc1cc(=O)n2ccsc2n1)c1ccccc1O	3.8	·	3.8	12.5	5.2	-54.7	3027
Cc1cccn2c(=O)c3c(nc12)N1CCc2ccccc2C1C1(C3)C(=O)NC(=O)N(C)C1=O (configuration not stated)	2.9	-4.6	-7.1	9.3	11.3	-41.9	19729*
COc1ccc(NC(=O)CCCC(=O)c2ccccc2)cc1OC	-5.9	-5.2	-0.3	-7.7	-5.8	-20.0	2866

Screens: PubChem, several laboratories
